From PubChem BioAssay
HPGD inh – blocks human HPGD enzyme activity; Potency, µM, inactives show top-dose activity change, negative = inhibition, usual class: inhibitors; 4.3% of 150,000 active; P15428; purified HPGD, NADH fluorescence kinetic, PGE2 substrate; active = well fitted inhibition curve with a large enough effect (not every such curve was filed as active); inconclusive = small, poorly fitted or top-dose-only effect, or another doubt; inactive = no such curve, though single readings can be large or run the other way;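 note: top concentration of the series not given in the record; plate controls included wells without enzyme; inactives centre near -10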
Target sequence (P15428 whole entry, looked up): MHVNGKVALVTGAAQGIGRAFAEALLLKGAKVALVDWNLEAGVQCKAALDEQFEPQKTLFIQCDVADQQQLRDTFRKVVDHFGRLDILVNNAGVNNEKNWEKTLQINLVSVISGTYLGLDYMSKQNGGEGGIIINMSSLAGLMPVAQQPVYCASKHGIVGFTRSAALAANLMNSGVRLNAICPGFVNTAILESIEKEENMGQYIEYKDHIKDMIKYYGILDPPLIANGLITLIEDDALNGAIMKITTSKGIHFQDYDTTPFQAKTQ
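20 nM HPGD preincubated 15 min at room temperature with compound in 50 mM Tris-HCl pH 8, 0.01% Tween 20. Started with 1 mM NAD+ and 30 uM prostaglandin E2; NADH fluorescence (360/450 nm) read 5 times over 30-s intervals, last minus first.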
* = called active by the depositor; ? = inconclusive; & = joins results of further samples. % is set by controls: 0 for no effect and ±100 for the full control effect; potency is the fitted concentration of half-maximal effect. These rows are one share of the data; the hit share may differ from the screen's.

SMILES | HPGD inh
O=C(c1ccc(N2CCN(C3CC(=O)N(c4ccc(F)cc4)C3=O)CC2)cc1)c1cccnc1 (configuration not stated) | -22.0%
CCCc1c(-c2ccc(O)cc2)nn(-c2ccc(O)cc2)c1-c1ccc(O)cc1 | -18.0%&-20.8%
CCOCC(=O)Nc1ccc(F)c(F)c1 | 28.2µM*
CCCCN1CCC(COC(=O)c2cc(Cl)c(N)c3c2OCCO3)CC1 | -12.9%
Cc1nc2ccc(S(=O)(=O)Nc3cccc(-c4nc5cccnc5s4)c3)cc2s1 | ?
COc1ccc(/C=N\NS(=O)(=O)c2ccc(C)cc2)cc1COc1ccccc1[N+](=O)[O-] | -21.5%
Cc1ccc(C)c(N2C(=O)CN=C2Nc2ccccc2Cl)c1 | -5.1%
Cc1ccc(-c2ccc(/C=C3\C(=O)ON=C3c3ccccc3)o2)c([N+](=O)[O-])c1 | 1.26µM*
CCOc1ccc(N(CC(=O)O)S(=O)(=O)c2ccc(F)cc2)cc1 | -14.2%
COc1ccc(CSc2nnnn2C)cc1F | -15.2%
COCCCNS(=O)(=O)c1ccc(Oc2ncc(C(F)(F)F)cc2Cl)cc1 | ?
O=C(O)Cc1cc(I)c(Oc2ccc(O)c(I)c2)c(I)c1 | ?
CN(C(=O)c1cccc(C#N)c1)c1nnc(-c2cnccn2)s1 | -0.5%
Cc1ccc(C)c(OCC(O)CN2CCC(CN3C(=O)c4cccc5cccc(c45)C3=O)CC2)c1 (configuration not stated) | -18.3%
CCN(CC)c1cc2nc(C)n(Cc3ccccc3)c(=O)c2cc1NC(=O)C1CC1 | -12.2%
Cc1n[nH]c(C)c1S(=O)(=O)N1CCN(C2CCCCC2)CC1 | -9.3%
O=C1CCCC2=C1C(O)(C(F)(F)F)C(=O)N2Cc1ccccc1 (configuration not stated) | -12.5%
Cc1ccc(CN2CCN(/N=C/c3cc([N+](=O)[O-])ccc3Cl)CC2)cc1 | -5.8%
CC(=O)N1C(=S)NC(=O)/C1=C1/C(=O)N(CC(=O)Nc2cccc(C)c2)c2ccccc21 | -17.3%
Cc1ccc(Cn2nnc3c(=O)[nH]c(C4CCCN(S(=O)(=O)c5ccccc5)C4)nc32)cc1 (configuration not stated) | -14.4%
Cc1nn(C)c(Oc2ccc(Cl)cc2)c1C(=O)Nc1ccc(F)cc1F | -1.7%
CCOc1c2ccc(C(=O)N[C@H](C)C3CCCCC3)cc2nn1CCOC | ?
Cc1noc(C)c1C(=O)Nc1ccc(F)c(F)c1 | -11.6%
Cc1c(N=C=O)cccc1N=C=O | -5.0%
COc1cc(NC(=S)NC(=O)c2cc(C)cc(C)c2)ccc1NC(=O)c1cccs1 | -17.5%
Cc1csc(=NC(=O)c2ccccc2)n1CCO | -10.7%
CC(CN1CCCCC1)OC(=O)Cc1ccc(Cl)cc1 (configuration not stated) | -8.8%
CCCC12CN3CCN(CC(C3)/C1=N\NC(=O)Nc1ccccc1)C2 | 0.3%
FC(F)(F)c1cc(-c2ccco2)nc(-n2nc(C(F)(F)F)cc2C2CC2)n1 | ?
CC(=Nc1ccccc1)C1=C(O)CCCC1=O | -28.1%

7 compounds already listed, sorted by SMILES length, largest number first:
SMILES | HPGD inh
Cc1ccc(Cn2nnc3c(=O)[nH]c(C4CCCN(S(=O)(=O)c5ccccc5)C4)nc32)cc1 (configuration not stated) | -14.4%
FC(F)(F)c1cc(-c2ccco2)nc(-n2nc(C(F)(F)F)cc2C2CC2)n1 | ?
Cc1n[nH]c(C)c1S(=O)(=O)N1CCN(C2CCCCC2)CC1 | -9.3%
CC(CN1CCCCC1)OC(=O)Cc1ccc(Cl)cc1 (configuration not stated) | -8.8%
Cc1noc(C)c1C(=O)Nc1ccc(F)c(F)c1 | -11.6%
Cc1csc(=NC(=O)c2ccccc2)n1CCO | -10.7%
Cc1c(N=C=O)cccc1N=C=O | -5.0%

Following part:
SMILES | HPGD inh
Cc1ccc(Cn2ccc(NC(=O)CCSc3nc(-c4ccco4)cc(C(F)(F)F)n3)n2)cc1 | -18.1%
COc1cccc2sc(N)nc12 | -3.0%
CC(=O)N/C(=C/c1ccc2c(c1)OCO2)C(=O)NCC(=O)O | -11.8%
CC(C)(C)c1ccc(NC(=O)COC(=O)C2=COCCO2)cc1 | -3.1%
N#Cc1cn(-c2ccccc2)nc1-c1ccccc1 | -13.8%
C=CCNC(=O)CN(c1ccccc1OCC)S(=O)(=O)c1ccc(C)cc1 | -11.5%
Cc1ccc(CNC2=NCCCCC2)n1C | -6.4%
CCOC(=O)c1ccc2c(c1)nc(COc1ccc(OC)cc1)n2CC | -8.6%
CC(/C=C/c1ccc(O)cc1)=N/O | -18.7%
O=C(Nc1ccccc1)N1CCC(c2nc(-c3ccc(S(=O)(=O)N4CCOCC4)cc3)no2)CC1 | -3.6%
Cc1ccc(C)c(C(=N)c2ccccc2Cc2ccccc2)c1 | 1.5%
Cc1ccc(CC(=O)NCc2ccc3c(c2)OCO3)cc1 | -16.9%
C=CCSc1nnc2c(n1)OC(c1c(C)[nH]n(-c3ccccc3)c1=O)Nc1ccccc1-2 (configuration not stated) | -12.1%
CCOc1ccccc1N1C(=O)CC(N(O)c2ccccc2)C1=O (configuration not stated) | 0.7%
COc1cc(C2NC(=S)NC(C)=C2C(=O)c2ccccc2)ccc1O (configuration not stated) | -2.3%
COc1ccc(-c2ccnc3nc(N4CCN(c5ccccc5)CC4)nn23)cc1 | -31.1%
Nc1c2c(=O)oc(-c3ccccc3)cc2nn1-c1ccccc1 | ?
Cc1nc2nc3c(cn2n1)C(=O)CC(c1ccccc1)C3 (configuration not stated) | -11.4%
O=[N+]([O-])c1cccc(C2=NCCS2)c1 | -12.8%
CCOC1(OCC)C(c2ccc(Cl)cc2)C(C#N)(C#N)C1(OCC)OCC (configuration not stated) | -26.4%
Cc1ccc(Oc2nc3ccccn3c(=O)c2/C=C(\C#N)C(=O)Nc2c(C)n(C)n(-c3ccccc3)c2=O)c(C)c1 | ?
Cc1ccc(Nc2nnns2)cc1 | 22.4µM*
COc1ccc(NC(=O)C23CCC(C2)C(C)(C)C3=O)cc1 (configuration not stated) | -2.2%
O=c1c(-c2ccccc2)coc2c(CN3CCCC3)c(O)ccc12 | ?
CCOC(=O)c1cnc2ccc(OCC)cc2c1NCc1cccnc1 | -25.3%
O=C(Cc1ccc(F)cc1)Nc1ccc(F)c([N+](=O)[O-])c1 | -2.2%
COc1ccc(-c2cc(=O)c3ccccc3[nH]2)cc1 | ?
CCCOC(=O)c1c(NC(=O)CSc2nc(-c3ccco3)cc(C(F)(F)F)n2)sc(C(=O)OC)c1C | ?
COc1cc2c(cc1NC(=O)CSCC(=O)O)oc1ccccc12 | ?
CC1CCCCN1CCNC(=O)C1CC(=O)N(c2ccc(F)c(Cl)c2)C1 (configuration not stated) | -12.2%
Cc1cccc(CN2CCC(C(N)=O)CC2)c1 | -2.5%
Cc1cc(-n2ccc(=O)[nH]c2=O)nc(-c2ccccc2)n1 | -9.2%
CC(C)(C)n1nnnc1C(c1ccccc1)N1CCc2ccccc2C1 (configuration not stated) | -3.8%
CCN1/C(=C/c2ccc3cccc(C)c3[n+]2CC)Sc2ccccc21 | -1.4%
COc1cccc(/C=C2/CN(C)CC3=C2OC(N)=C(C#N)C3c2cccc(OC)c2)c1 (configuration not stated) | -12.3%
COc1ccc(NC(=O)CSc2nncs2)cc1OC | -5.8%
Cc1ccc(S(=O)(=O)N2CCCC2C(=O)O)cc1 (configuration not stated) | -11.3%
O=C(CSc1nnc(-c2ccco2)n1CC1CCCO1)c1ccccc1 (configuration not stated) | -22.2%
Cc1ccccc1CN1CCN(C(=O)c2cccc(F)c2)CC1 | 3.0%
O=C1c2ccccc2C(=O)N1c1ccccc1S(=O)C(F)(F)F (configuration not stated) | -8.4%
CN(C)C(=O)CSc1nc2ccccc2c(=O)[nH]1 | -22.5%
O=C(Nc1cccnc1)C1(F)C(F)(F)C(F)(F)C(F)(F)C(F)(F)C1(F)F | -8.8%
N#Cc1ncc(C(F)(F)F)cc1Sc1ccc(N)cc1 | -24.9%
C=CCNC(=O)C(C)Sc1ccc(Cl)cc1 (configuration not stated) | ?
CC(=O)Cc1nsc(NC(=O)c2ccc(COc3ccc(C)cc3)o2)n1 | -16.4%

Reformatted as labelled records: 4 of the compounds above.
> CCOc1c2ccc(C(=O)N[C@H](C)C3CCCCC3)cc2nn1CCOC
  HPGD inh: ?

> O=C1c2ccccc2C(=O)N1c1ccccc1S(=O)C(F)(F)F (configuration not stated)
  HPGD inh: -8.4%

> CC(CN1CCCCC1)OC(=O)Cc1ccc(Cl)cc1 (configuration not stated)
  HPGD inh: -8.8%

> O=C(CSc1nnc(-c2ccco2)n1CC1CCCO1)c1ccccc1 (configuration not stated)
  HPGD inh: -22.2%

Going on with the list.
SMILES | HPGD inh
COc1ccccc1C(C)NCC(=O)Nc1ccccc1C(F)(F)F (configuration not stated) | ?
CCOc1ccc(OCC)c(NC(=O)CSc2nc3ccccc3c(=O)n2C)c1 | -6.6%
COc1ccc(/C=N/NC(=O)c2ccc(CSc3nc(C)cc(C)n3)cc2)c(OC)c1OC | 35.5µM*
CN(C)c1ccc(CNn2cnnc2)cc1 | 2.8%
CCN(CC)CCNC(=O)c1ccc(CS(=O)(=O)c2ccc(Br)cc2)o1 | -15.4%
Cc1nnc(SCC(N)=O)n1CCc1ccccc1 | -16.9%
Cc1ccc2c(c1)[nH]c1c(=O)n(CCCN3CCOCC3)cnc12 | ?
Cc1ccc(S(=O)(=O)N2CCOCC2)cc1NC(=O)Cn1ccsc1=N | -29.9%
COc1ccc(-c2cnn(C3CCS(=O)(=O)C3)c2N)cc1 (configuration not stated) | -19.4%
C=CCN1C(=O)/C(=C\c2ccc(Cl)cc2)N=C1SCC(=O)NCCC | -4.4%
CCOC(=O)C1CCN(c2nc3ccccc3nc2C(C#N)C(=O)OC(C)COC)CC1 (configuration not stated) | -12.8%
CC(C)[C@H](NC(=O)OC(C)(C)C)C(=O)N/N=C/c1cccc2nccnc12 | ?
COc1ccc(CCNC(=O)C2CCCN(S(=O)(=O)c3cccc4nonc34)C2)cc1OC (configuration not stated) | 0.3%
CCCC(c1nnnn1Cc1ccco1)N1CCN(C2CCCC2)CC1 (configuration not stated) | -7.0%
Cc1cc(=O)[nH]c(-c2ccccc2O)n1 | ?
Cc1csc(NC(=O)CSc2nnc(-c3ccoc3C)n2Cc2ccco2)n1 | -7.1%
COCc1[nH]nc2c1C1(CCSCC1)C(C#N)=C(N)O2 | 1.1%
Cc1ccccc1OCC(=O)NCCN(C)C | -10.4%
CCN(CC)S(=O)(=O)c1ccc(-c2nnc(SCC(=O)c3ccc(OC)cc3)o2)cc1 | -6.9%
Cc1cccc(-n2ncc3c(NCc4ccc5c(c4)OCO5)ncnc32)c1 | -21.7%
CCOCC(=O)Nc1cccc(NC(C)=O)c1 | -8.1%
Cc1ccc(CC2CC(=O)N(c3ccncc3)C2=O)cc1 (configuration not stated) | -12.5%
COc1ccccc1S(=O)(=O)Nc1cccc(-c2nnc3n2CCCCC3)c1 | -20.5%
COc1cccc(C2=CC(c3ccc(N(C)C)cc3)n3ncnc3N2)c1 (configuration not stated) | -20.0%
Cc1c(N=Cc2ccncc2)c(=O)n(-c2ccccc2)n1C | -12.6%
COc1ccc2nc(NCN3C(=O)c4ccccc4C3=O)sc2c1 | -6.7%
O=C(O)c1cccc([N+](=O)[O-])c1 | 1.8%
Cc1nn(Cc2ccccc2)c(Cl)c1/C=N/NC(=O)CNc1cccc(C(F)(F)F)c1 | -10.8%
COCCN(C(=O)CCC(=O)Nc1ccccn1)C(C(=O)NC1CCCC1)c1ccc(OC)cc1 (configuration not stated) | 2.7%
O=C(NCCCCO)C(F)(F)C(F)(F)C(F)(F)C(=O)NCCCCO | -6.6%
C#C[C@@]1(O)CCC2C3CCc4cc(O)ccc4C3CC[C@@]21C (some centres not stated) | -2.4%
CC(C)OC(=O)C(CC(=O)O)NCc1ccccc1 (configuration not stated) | -10.3%
CCN(CC)C(=O)c1cc2c(=O)n3cccc(C)c3nc2n1C | ?
COc1cc(C)c(S(=O)(=O)N2CCN(C)CC2)cc1C | -1.1%
CC(C)=CCC/C(C)=C/C=N/NC(=O)c1ccc([N+](=O)[O-])cc1 | -15.9%
CN(C)c1ccc(C(=S)N2CCN(c3ccccc3)CC2)cc1 | -9.3%
O=C(CSc1ncn(-c2ccccc2)n1)c1cccs1 | 8.91µM*
COc1cc2c(=O)c(-c3ccc(O)cc3)coc2cc1OC1OC(CO)C(O)C(O)C1O (configuration not stated) | -20.0%
Nc1ccc(Cc2nc3c(ccc4ccccc43)[nH]2)cc1 | -14.3%
CCCCC[C@H](O)/C=C/[C@H]1[C@H](O)CC(=O)[C@@H]1C/C=C\CCCC(=O)O | -17.0%
CCCCC/C=C\C[C@@H](O)/C=C/C=C/C=C\[C@@H](O)CCCC(=O)O | -18.6%&-7.2%
CCN1C(=O)C(O)(CC(=O)/C=C/C=C/c2ccccc2)c2ccccc21 (configuration not stated) | -22.5%
CC[n+]1ccc(C)c2cc(S(=O)C(F)(F)F)ccc21 (configuration not stated) | -20.7%
CCOc1ccc(CNC(=O)CCCc2cn(C)c3ccccc23)cc1OC | -5.0%
CCC(C)NC(=O)c1ccc(CS(=O)(=O)Cc2ccc(Cl)cc2)o1 (configuration not stated) | -1.7%
COC(=O)c1cc(NC(=O)Cc2ccc(OC)cc2)cc(C(=O)OC)c1 | -15.4%
Cc1ccc(Nc2nc(NCCCN3CCOCC3)nc(N)c2[N+](=O)[O-])cc1 | -8.5%
O=C(OCc1ccccc1)N1CCOCCOCCN(C(=O)OCc2ccccc2)CCOCCOCC1 | -12.2%
CC1(C)CC(=O)C(C(=O)CCCCC(=O)C2C(=O)CC(C)(C)CC2=O)C(=O)C1 | -9.7%
